# Bioassay records as filed in PubChem.
# 2A firefly = Primary qHTS Assay for Foot and Mouth Disease Virus Antivirals against NCGC Sytravon and CBC Compound Libraries: Firefly Luciferase Signal; HEK cells with a luciferase reporter of 2A StopGo recoding; Potency, µM (series often up to 57.5 µM), for inactives: top-dose signal change, negative = less light; 0.23% of 120,000 active; AID 1745856, 2022; active = well fitted falling curve with a large enough effect; inconclusive = small, poorly fitted or top-dose-only effect; inactive = no such curve, though single readings can be large or run the other way; further: nearly all actives have a fitted effect of over 60% in size; overnight with compound
# StopGo RLuc = Primary qHTS Assay for Foot and Mouth Disease Virus Antivirals against NCGC Sytravon and CBC Compound Libraries: Renilla Luciferase Signal. HEK cells with a luciferase reporter of 2A StopGo recoding. Potency, µM (highest dose often 57.5 µM), for inactives: at the highest dose signal change, negative = less light. 0.32% of 120,000 active; active means well fitted falling curve with a large enough effect; inconclusive means small, poorly fitted or top-dose-only effect; inactive means no such curve, though single readings can be large or run the other way; further: nearly all actives have a fitted effect of over 55% in size; overnight with compound
# * = called active by the depositor; ? = inconclusive; [ ] = dose if it differs, or a comment. On the % scale 0 is the no-effect control and ±100 the full control effect; potency means the concentration at half of the fitted maximal effect.
# A first look:
1) CC(C)(C)c1ccc(C(=O)NNC(=S)Nc2ccccc2)cc1
2) O=C(COC(=O)CCNS(=O)(=O)c1ccccc1)Nc1ccc(F)c(Cl)c1

entry no. | 1 | 2
2A firefly | 202%[activator] | -4%
StopGo RLuc | 14% | -16%

# Main list, previewed entries included:
1) CC(C)(C)c1ccc(C(=O)NNC(=S)Nc2ccccc2)cc1
2) O=C(COC(=O)CCNS(=O)(=O)c1ccccc1)Nc1ccc(F)c(Cl)c1
3) CCOc1ccc(CCNC(=O)c2cc3c(s2)-c2c(C)cccc2OC3)cc1
4) CC1=C/C(=N/NC(=S)NC2CCCCC2)CC1
5) CC(=O)Nc1cc(-c2ccc(=O)n(C(C)C(=O)Nc3ccc(C)c(C)c3)n2)ccc1C (stereo not drawn)
6) Cc1ccccc1-c1nc(CN2CCC(C(=O)NCc3ccc(F)cc3)CC2)c(C)o1
7) O=C(O)c1ccccc1NC(=O)N1c2ccccc2Sc2ccccc21
8) CC(=O)c1ccccc1NC(=O)Cn1cnc2cc(Cl)ccc2c1=O

entry no. | 1 | 2 | 3 | 4 | 5 | 6 | 7 | 8
2A firefly | 202%[activator] | -4% | -8% | 96%[activator] | 8% | -9% | 23% | 7%
StopGo RLuc | 14% | -16% | -8% | 192%[activator] | 3% | -13% | -1% | -8%

9) CCc1ccc(CNC(=O)c2ccc(-n3c(C)cc4c3CCC(C)C4)cc2)cc1 (stereo not drawn)
10) O=S(=O)(NCCO)c1ccc(-c2ccc(S(=O)(=O)NCCO)cc2)cc1
11) CCCCC(CC)C(=O)Nc1ccc(F)c(F)c1 (stereo not drawn)
12) O=[N+]([O-])c1cccc2ccc(/C=C/c3cccc(C(F)(F)F)c3)nc12
13) O=C(COc1ncnc2c(Cl)cc(Cl)cc12)Nc1ccccc1F
14) O=C(Nc1ccc(N2CCCCC2)cc1)c1nn(-c2ccccc2)c(=O)c2ccccc12
15) COc1ccc2c(c1)CCc1sc(NC(=O)c3ccc(Cl)cc3)nc1-2
16) CC(C)CNc1nc(NC(C)(C)C)nc(Oc2ccc(=O)n(-c3ccccc3)n2)n1

entry no. | 9 | 10 | 11 | 12 | 13 | 14 | 15 | 16
2A firefly | 14% | -5% | -7% | 101%[activator] | 0% | 25% | -3% | -9%
StopGo RLuc | 14% | -2% | 15% | -14% | -12% | -1% | ? | 5%

17) O=C(CCc1ncc(-c2ccc(F)cc2F)o1)Nc1ccncc1
18) Cc1cccc(CS(=O)(=O)Cc2ccc(C(=O)NCc3ccc(F)cc3)o2)c1
19) CCc1ccccc1NC(=O)Cn1nnc(C(=O)NCc2cccc(OC)c2)c1N
20) O=C(O)c1ccc2nccnc2c1
21) CNc1ccc(-c2nc(-c3ccccc3C)no2)cc1[N+](=O)[O-]
22) CCCNC(=O)N1CCCN(S(=O)(=O)c2ccc3c(ccn3CC)c2)CC1
23) CCc1cccc2c(C3=CCN(C(=O)CC(C)C)CC3)c[nH]c12
24) Cc1ccc(NS(=O)(=O)c2ccc(N/N=C/c3cc(C)[nH]c3C)c([N+](=O)[O-])c2)c(C)c1

entry no. | 17 | 18 | 19 | 20 | 21 | 22 | 23 | 24
2A firefly | 21% | ? | 20% | -22% | 75%[activator] | 23% | 39%[activator] | -6%
StopGo RLuc | -12% | -28% | 48%[activator] | 4% | -6% | 48%[activator] | -12% | 20%

25) CC(N)CCc1ccc(O)cc1 (stereo not drawn)
26) COC(=O)c1cccc(NC(=O)Cc2cc(C(C)=O)ccc2OC)c1
27) CCc1cc2c(cc3c(=O)n(CC(=O)NCc4cc(Br)ccc4OC)ncn32)s1
28) O=C(COC(=O)CCc1c[nH]c2ccccc12)NC1CC1
29) CCCC(=O)OCCNc1c(C(=O)OCC)cnc2c(Cl)c(Cl)ccc12
30) COC(=O)[C@]12C[C@H](CC(=O)N3CCCCC3)C(=O)N(Cc3cccc4ccccc34)C1=C[C@H](C1CCCC1)O[C@@H]2C
31) CCn1c(SCc2nnc(-c3ccccc3Br)o2)nnc1N1CCOCC1
32) Cc1cc(NC(=O)c2cc(-c3cccc(Cl)c3)on2)n(-c2ccccc2)n1

entry no. | 25 | 26 | 27 | 28 | 29 | 30 | 31 | 32
2A firefly | 19% | 23% | 6% | 16% | 7% | ? | 32%[activator] | 16%
StopGo RLuc | 6% | 13% | -1% | 9% | 3% | 162%[activator] | 0% | 12%

33) O=[N+]([O-])c1cccc(Br)c1
34) COc1ccc(C(=O)N2CCN(Cc3cc(=O)n4ccsc4n3)CC2)cc1F
35) O=C(c1ccc(F)cc1)N1CCN(c2cn[nH]c(=O)c2Cl)CC1
36) CCn1cc(S(=O)(=O)c2cc(C)cc(C)c2)c(=O)c2cc(F)c(N3CCN(c4ccccc4)CC3)cc21
37) COc1ccc(CC(=O)Nc2nonc2-c2ccc(Br)cc2)cc1
38) Cc1ccc(NC(=O)CC(O)(c2nccn2C)C(F)(F)F)cc1 (stereo not drawn)
39) CCOc1ccc(NC(=O)NCc2cccn2Cc2ccccc2)cc1
40) c1ccc2c(c1)OCCOCCOCCOc1ccccc1OCCOCCO2

entry no. | 33 | 34 | 35 | 36 | 37 | 38 | 39 | 40
2A firefly | 0% | 8% | 10% | -15% | 11% | 0% | -15% | ?
StopGo RLuc | 29% | -1% | -6% | -5% | 50%[activator] | 7% | -1% | ?

41) CCOC(=O)c1ccc(N2C(=O)c3n[nH]c(-c4cccs4)c3C2c2ccc(Cl)cc2Cl)cc1 (stereo not drawn)
42) COc1cc2c(cc1OC)-c1c(c(C(=O)N3CCCC3)nn1-c1ccccc1F)C2
43) CNC(=O)c1ccc2c(c1)N(Cc1ccccc1Cl)C(=O)c1ccccc1S2
44) COc1cc(OC)c(C2CC(=O)Oc3c2c(=O)[nH]c2ccccc32)cc1OC (stereo not drawn)
45) Cc1ccc(CSc2nc3ccc(NC(=O)COc4ccc(F)cc4)cc3s2)cc1
46) Cc1ccc(F)c(S(=O)(=O)N2CCCC2c2nc3ccccc3[nH]2)c1 (stereo not drawn)
47) Cc1cc(C)c2oc(C(=O)N(Cc3ccccc3)Cc3ccco3)cc(=O)c2c1
48) O=C(CN1CCC(C(=O)N2CCCCCC2)CC1)c1c[nH]c2ccccc12

entry no. | 41 | 42 | 43 | 44 | 45 | 46 | 47 | 48
2A firefly | ? | 54%[activator] | 0% | -13% | -13% | 16% | -12% | -15%
StopGo RLuc | ? | 60%[activator] | 21% | -16% | -3% | 18% | 112%[activator] | -25%

49) Cc1cccc(NC(=O)CN(c2ccc(C(C)C)cc2)S(=O)(=O)c2c(C)nn(C)c2C)c1C
50) COc1ccc(Cn2c(CCC(=O)NCc3ccc(Cl)cc3)nc3cccnc32)cc1
51) CCc1ccc(OCc2cc(=O)n3c4c(sc3n2)CCCC4)cc1
52) CCOC(=O)C1CCC(CN(Cc2ccc(OC)cc2)S(=O)(=O)c2ccc(F)c(C(=O)Nc3cc(C)ccc3C)c2)CC1 (stereo not drawn)
53) Cc1ccc(CNC(=O)CCCn2c(=O)[nH]c3ccc(Br)cc3c2=O)cc1
54) Cn1c(CNC(=O)CSc2nc(-c3ccccc3F)nc3cc(=O)[nH]n23)nc2ccccc21
55) Cc1ccc(C)c(N2CCN(C(=O)c3cc4ccc5cccnc5c4[nH]3)CC2)c1
56) CC(=O)N1c2ccccc2CC1C(=O)N1CCN(c2ccc(F)cc2)CC1 (stereo not drawn)

entry no. | 49 | 50 | 51 | 52 | 53 | 54 | 55 | 56
2A firefly | -11% | -6% | 14% | 7% | ? | -11% | 48%[activator] | -19%
StopGo RLuc | -12% | 4% | -9% | 4% | -12% | 1% | 0% | -16%

57) Cn1c(=O)c2c(c3ccccc31)OC(=O)CC2c1ccccc1 (stereo not drawn)
58) Cc1ccccc1Cn1nnc2c(=O)[nH]c(C3CCCN(C(=O)c4ccc(F)cc4)C3)nc21 (stereo not drawn)
59) CC(=O)N1c2ccc(S(=O)(=O)NCC3CCC(C(=O)NC(C)(C)C)CC3)cc2CC1C (stereo not drawn)
60) Cc1ccc(CN2CCN(C3CCN(C(=O)c4ccc(C)cc4)CC3)C(=O)C2=O)cc1
61) CCNC(=O)NC(=O)CNc1ccccc1N(C)Cc1ccccc1
62) Brc1csc(CN2CCc3nc(Nc4ccccc4)ncc3C2)c1
63) CN(C)c1ccc(-c2ccc(N(C)C)cc2)cc1
64) Cc1ccc(NC(=O)C(C)C)cc1NC(=O)C1(C)CC1(Cl)Cl (stereo not drawn)

entry no. | 57 | 58 | 59 | 60 | 61 | 62 | 63 | 64
2A firefly | 7% | -4% | -12% | 0% | 78%[activator] | 60%[activator] | 269%[activator] | -10%
StopGo RLuc | -12% | 11% | 7% | -7% | 3% | 8% | 8% | 3%

# 4 records picked at random from the list so far, as already listed:
60) Cc1ccc(CN2CCN(C3CCN(C(=O)c4ccc(C)cc4)CC3)C(=O)C2=O)cc1
57) Cn1c(=O)c2c(c3ccccc31)OC(=O)CC2c1ccccc1 (stereo not drawn)
58) Cc1ccccc1Cn1nnc2c(=O)[nH]c(C3CCCN(C(=O)c4ccc(F)cc4)C3)nc21 (stereo not drawn)
59) CC(=O)N1c2ccc(S(=O)(=O)NCC3CCC(C(=O)NC(C)(C)C)CC3)cc2CC1C (stereo not drawn)

entry no. | 60 | 57 | 58 | 59
2A firefly | 0% | 7% | -4% | -12%
StopGo RLuc | -7% | -12% | 11% | 7%

# Continuation.
65) CCCn1c2ccccc2c2cnn(CC(=O)NCCc3ccc(OCC)c(OCC)c3)c(=O)c21
66) CC(C)c1ccc(Nc2cc(C(=O)NC3CCCCC3)c3ccccc3n2)cc1
67) CCn1c(C(=O)Nc2cc(C)cc(C)c2)cc2sc(Cl)cc21
68) CN(CC(=O)NC(C1CC1)C1CC1)c1ccccc1
69) Cc1ccc(C(=O)NC2CC(C)(C)NC(C)(C)C2)cc1C
70) COC(=O)c1ccc(C)c(NC(=O)CN(c2cc(C(F)(F)F)ccc2Cl)S(C)(=O)=O)c1
71) CC(C)CCN(CC(=O)NC(N)=O)C1CC1
72) O=C(CSc1n[nH]c(-c2ccccc2F)n1)Nc1ccc2c(c1)OCCCO2

entry no. | 65 | 66 | 67 | 68 | 69 | 70 | 71 | 72
2A firefly | -18% | -17% | -1% | 7% | -14% | 3% | -1% | 66%[activator]
StopGo RLuc | -11% | -11% | -11% | 10% | -13% | 120%[activator] | -2% | 3%

# 3 compounds from above, arranged by length of the SMILES, smallest number first.
27) CCc1cc2c(cc3c(=O)n(CC(=O)NCc4cc(Br)ccc4OC)ncn32)s1
24) Cc1ccc(NS(=O)(=O)c2ccc(N/N=C/c3cc(C)[nH]c3C)c([N+](=O)[O-])c2)c(C)c1
30) COC(=O)[C@]12C[C@H](CC(=O)N3CCCCC3)C(=O)N(Cc3cccc4ccccc34)C1=C[C@H](C1CCCC1)O[C@@H]2C

entry no. | 27 | 24 | 30
2A firefly | 6% | -6% | ?
StopGo RLuc | -1% | 20% | 162%[activator]

# (next part)
73) COc1ccc2c(c1)cc1c(=O)n(CC(=O)NC3CCCCC3)nc(C)n12
74) COc1ccc(CCNC(=O)c2cn(C)c3ccc(S(=O)(=O)N4CCOCC4)cc3c2=O)cc1OC
75) Cc1ccc(NC(=O)Nc2c(NC3CCCCC3)c3ccccc3oc2=O)cc1
76) CCOc1ncccc1C(=O)Nc1cc(S(=O)(=O)N(C)C)ccc1C
77) Nc1nccnc1C(=O)NCc1ccccn1
78) CCNc1nc(SCC(=O)NC(C)(C#N)C(C)C)nc2ccccc12 (stereo not drawn)
79) O=C(N1CCN(c2nc(-c3ccccc3)c3ccccc3n2)CC1)C(F)(F)F
80) CCOc1cc(CNC(=O)c2ccc3c(c2)N(C)C(=O)C2CCCCN32)ccc1OC (stereo not drawn)

entry no. | 73 | 74 | 75 | 76 | 77 | 78 | 79 | 80
2A firefly | -8% | -9% | 13% | -1% | 0% | 15% | -2% | -9%
StopGo RLuc | -6% | -5% | 24% | 3% | 0% | 9% | -9% | 19%

81) O=C(NC1CCN(C(=O)c2cc(C3CC3)nc3ccccc23)CC1)C1CC1
82) O=C(CCC1CCCCC1)Nc1ccc(I)cc1
83) O=C(Cn1nc(N2CCN(c3ccccc3)CC2)ccc1=O)NCc1cccc(Cl)c1
84) COc1ccc(S(=O)(=O)N2CCN(c3ccccc3F)CC2)cc1-c1nc(C(C)C)no1
85) CCOc1nc2ccccc2nc1N1CCC(C(N)=O)CC1
86) CC(=O)Nc1ccc(Nc2ncnc3c2c(-c2ccccc2)cn3-c2ccccc2)cc1
87) COc1ccc(Cl)c(Cn2c(NCCN)nc3c2c(=O)n(C)c(=O)n3C)c1
88) CCOC(=O)c1c(C)[nH]c(C)c1S(=O)(=O)NCC(=O)NCc1cccc(Br)c1

entry no. | 81 | 82 | 83 | 84 | 85 | 86 | 87 | 88
2A firefly | 1% | 0% | -5% | 5% | 3% | -11% | -1% | -9%
StopGo RLuc | -1% | 20% | -3% | 7% | 2% | -12% | -8% | 100%[activator]

# Compounds were not picked by outcome; any-hit rate near 0.55%.
